# Assay outcomes: PubChem, ICCB-Longwood Screening Facility, Harvard Medical School
# PV pol inh: poliovirus RdRp elongation inhibitors, primary screen, biochemical, fluorescence polarization, total intensity | % elongation, % (compound at 16.7 µg/mL) | AID 588519, 2011 | 150,000 tested, 0.66% active | poliovirus polymerase elongation; active compounds read low; in the data active = % elongation below about 90%; also: some results filed as inactive read as strong as hits
# Target sequence (P03300 1749-2209 limits assumed): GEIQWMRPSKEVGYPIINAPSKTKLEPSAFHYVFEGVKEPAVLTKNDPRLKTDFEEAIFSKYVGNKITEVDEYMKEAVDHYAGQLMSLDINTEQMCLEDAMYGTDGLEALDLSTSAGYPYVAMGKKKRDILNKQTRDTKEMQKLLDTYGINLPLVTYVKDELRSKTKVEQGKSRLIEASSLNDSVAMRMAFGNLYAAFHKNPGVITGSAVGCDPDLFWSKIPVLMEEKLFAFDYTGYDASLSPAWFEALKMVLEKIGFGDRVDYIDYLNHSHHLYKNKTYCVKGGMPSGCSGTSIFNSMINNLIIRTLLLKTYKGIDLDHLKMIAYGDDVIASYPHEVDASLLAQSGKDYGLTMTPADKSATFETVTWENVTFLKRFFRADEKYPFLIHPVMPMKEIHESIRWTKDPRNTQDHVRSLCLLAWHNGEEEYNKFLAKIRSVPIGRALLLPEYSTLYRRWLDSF
# PV pol inh intensity: further read-out of PV pol inh, marked with its call; % elongation; measured here: total intensity read-out; formula for this scale not given here;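 total fluorescence in place of polarization; lower means less elongation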
# The depositor's hits bear a star. Not all compounds are listed; rates above refer to the full screens.
SMILES,PV pol inh,PV pol inh intensity
O=C(NCc1ccc2c(c1)CCN2C(=O)c1ccccc1)c1ccco1,107,109
Cc1c(NC(=O)c2cc(-c3ccc(F)cc3)on2)c(=O)n(-c2ccccc2)n1C,110,113
Cc1ccc(-c2nnc(SCC(=O)NCc3ccccc3)nc2-c2ccc(C)cc2)cc1,110,119
COc1cc(NC(=O)CN2CCN(CC(=O)Nc3ccc(F)cc3)CC2)cc(OC)c1,99,107
CC(=O)n1nc(-c2cccnc2)nc1NCc1ccc(F)cc1,100,99
CCOC(=O)c1cc(-c2ccccc2)n(CC(=O)Nc2ccccc2OCC)c1C,106,105
Cc1ccc(Cl)cc1-n1ncc2c(N3CCC(C(N)=O)CC3)ncnc21,103,108
Cc1c(C(=O)NCc2ccc(N(C)C)cc2)oc2c1-c1nn(Cc3cccc(Cl)c3)cc1CC2,106,105
CCC(Sc1nncn2c1cc1oc(C)cc12)C(=O)Nc1ccc(F)cc1 (stereo not given),111,113
COc1ccc(S(=O)(=O)c2cnc(SCC(=O)Nc3cc(F)ccc3C)[nH]c2=O)cc1Cl,107,111
CCCCCCc1cc2cc(-c3nnc(-c4ccc(C)cc4)o3)c(=O)oc2cc1O,120,228
CCN(CC)CCNC(=O)c1cc2c(=O)[nH]c3ccc(C)cc3c2s1,99,98
COc1cc(C2CC(=O)Nc3c2c(C)nn3-c2nncc(-c3ccc(C)cc3)n2)cc(OC)c1OC (stereo not given),115,117
CC(=O)Nc1cccc(Nc2nc3ccccc3n3c(C)nnc23)c1,105,115
O=C(COc1ccc(F)cc1)Nc1nnc(S(=O)(=O)N2CCc3ccccc32)s1,104,110
CCS(=O)(=O)N1CC(=O)N(c2cccc(Cl)c2C)C(C)(C(=O)NC2CCCCC2)C1 (stereo not given),102,97
O=C(NC1CCCc2ccccc21)c1ccc2c(c1)sc1nc(-c3ccccc3)cn12 (stereo not given),110,106
O=C(NCc1cccc(Br)c1)C1CCN(C(=O)c2sccc2-n2cccc2)CC1,114,112
Cc1ccc(NC(=O)CN2C(=O)COc3ccc(S(=O)(=O)N4CCCCC4)cc32)cc1N(C)C,121,124
CCOc1ccccc1CNc1ncnc2onc(-c3ccc(F)cc3)c12,110,109
CCCNc1ccc(-c2nc(-c3ccccn3)no2)cc1[N+](=O)[O-],107,94
Cc1ccc(S(=O)(=O)N2CCCc3cc(NS(=O)(=O)c4ccc(F)c(C)c4)ccc32)cc1,104,115
Cc1ccc(C)c(NC(=O)c2cc(S(=O)(=O)N3CCCCCC3)ccc2F)c1,110,115
Cc1ccc(-n2c(SCc3ccccc3C)nc3[nH]ncc3c2=O)cc1C,101,111
Cc1ccc(C)c(NC(=O)CSc2c3c(nc4ccc(Cl)cc24)CCCC3)c1,103,109

# Arranged by formula weight (lowest first): some entries from above.
SMILES,PV pol inh,PV pol inh intensity
CC(=O)n1nc(-c2cccnc2)nc1NCc1ccc(F)cc1,100,99
O=C(COc1ccc(F)cc1)Nc1nnc(S(=O)(=O)N2CCc3ccccc32)s1,104,110
COc1ccc(S(=O)(=O)c2cnc(SCC(=O)Nc3cc(F)ccc3C)[nH]c2=O)cc1Cl,107,111

# (further entries)
SMILES,PV pol inh,PV pol inh intensity
Cc1ccc(C)c(-n2c(CCC(=O)O)ccc2-c2ccc(Cl)cc2)c1,112,112
CCC(=O)N1CCc2cc(Br)cc(S(=O)(=O)CCC(=O)NCc3ccc(C)cc3)c21,101,106
CCC(C)NC(=O)CCc1c(C)nc2cc(-c3ccc(OC)cc3OC)nn2c1C (stereo not given),107,109
Cc1ccc(-c2cn3c(n2)sc2cc(C(=O)NC4CCCCCC4)ccc23)cc1,104,106
Cc1ccc(Nc2c(-c3ccc(N4CCOCC4)cc3)nc3ccc(C)cn23)cc1,102,106
CCN(CC)S(=O)(=O)c1nnc(NC(=O)c2ccccc2Cl)s1,105,111
CCOc1ccc(CNC(=O)C2CCCN(c3nc4c(C)cc(C)cc4s3)C2)cc1 (stereo not given),111,112
O=C(c1cc(-c2ccc(O)cc2)on1)N1CCN(c2ccccc2)CC1,104,102
CCc1cccc(NC(=O)CC2Oc3ccc(C)cc3NC2=O)c1 (stereo not given),100,102
CCc1c(C)c2ccc(O)c(CN3CCN(c4ccccc4)CC3)c2oc1=O,113,115
O=C(NCC(c1ccccc1)c1ccccc1)c1nn(-c2ccccc2Cl)nc1CO,104,101
COc1cc(NC(=O)c2nc3nc(C)cc(C(F)F)n3n2)c(OC)cc1Cl,109,112
CSc1cccc(NC(=O)CN(C)S(=O)(=O)c2ccc3c(c2)n(C)c(=O)c(=O)n3C)c1,104,104
CN(C)C(=O)c1ccc(NC(=O)Cn2nnnc2-c2ccccc2F)cc1,115,105
COc1ccc(Cl)cc1NC(=O)NCC1CCN(Cc2ccccc2F)CC1,110,110
Cc1ccc(C)c(N2CCN(C(=O)Cn3c(C)c4cnn(-c5ccccc5)c(=O)c4c3C)CC2)c1,109,106
COc1ccc(NC(=O)c2sc3nc(-c4cc5cccc(OC)c5oc4=O)[nH]c(=O)c3c2C)cc1,103,108
CC(C)c1ccc(NC(=O)CSC2=Nc3ccccc3C3=NC(CC(=O)NCc4ccc(F)cc4)C(=O)N23)cc1 (stereo not given),105,105
Cc1cccc(N2C(=O)N(Cc3cc(=O)n4ccccc4n3)c3ccccc3S2(=O)=O)c1,109,109
COc1ccc(-c2noc(-c3cccnc3NCc3ccco3)n2)cc1,119,126
COc1ccc(C)cc1NS(=O)(=O)c1cc2c3c(c1)CC(=O)N3CCC2,110,112
Clc1ccc(-c2csc(-c3nc(-c4ccc(Br)s4)cs3)n2)cc1,107,113
CCc1ccc(NC(=O)CSc2ccc(-c3ccccn3)nn2)cc1,102,99
Cc1cccc(CC(=O)Nc2ccc3nc(N4CCC(C)CC4)cc(C)c3c2)c1,107,111
COCCCNC(=O)C1CCCN(S(=O)(=O)c2ccc3c(c2)oc(=O)n3C)C1 (stereo not given),111,113
# Further records follow.
SMILES,PV pol inh,PV pol inh intensity
Cc1ccc(-c2noc(-c3ccc(NCC4CCCO4)c([N+](=O)[O-])c3)n2)cc1 (stereo not given),109,114
Cc1ccccc1C(=O)Nc1nnc2n1CCS2,106,112
CCCN(C(=O)Cn1cnc2onc(-c3ccc(F)cc3)c2c1=O)c1cccc(Cl)c1,97,97
COc1ccc(CNC(=O)C(=O)Nc2ccc(OC)cc2OC)cc1,101,102
COc1ccc(CNC(=O)c2ccc3c(c2)nc2n3CCCCC2)c(OC)c1,105,111
Cc1ccc2[nH]c3c(=O)n(CC(=O)NC(C)C)ncc3c2c1,103,102
CCOC(=O)C1=C(CN2CCN(c3cccc(OC)c3)CC2)NC(=O)NC1c1ccc(OC)cc1 (stereo not given),113,113
CN1C(=O)Cc2cc(S(=O)(=O)N3CCN(c4ccc(Cl)cc4)CC3)ccc21,108,110
COc1ccc(NC(=O)c2cc3c(=O)n(Cc4cccs4)ccc3nc2C)cc1,107,112
CCCCC(=O)Nc1nnc(SCc2cc(=O)n3cc(C)ccc3n2)s1,110,112
CCOc1ccc(-n2c(=O)c3c4c(sc3n(CC(=O)Nc3cccc(C(F)(F)F)c3)c2=O)CCCCC4)cc1,106,109
CC1CCN(C(=O)Cn2c(-c3cccs3)cc3cc(Cl)ccc32)CC1,114,116
O=C(CSc1nc2c([nH]c3ccccc32)c(=O)n1-c1ccccc1F)Nc1ccccc1C(F)(F)F,111,115
CCN(CC)C(=O)Cn1c(=O)cc(C)c2c(C)nn(-c3ccc(C)cc3)c21,103,104
COc1cccc(N2CCN(C(=O)c3cccc(-n4c(C)nc5cccnc54)c3)CC2)c1,110,111
COc1ccc(CCNC(=O)CCn2c(=O)c3ccccc3n(CC(=O)Nc3ccccc3F)c2=O)cc1OC,104,104
O=C(CN1C(=O)COc2ccc(S(=O)(=O)N3CCCC3)cc21)N1CCN(c2ccccc2)CC1,104,110
CCCCOc1ccccc1C(=O)Nc1nonc1-c1ccccc1,103,95
COc1ccc(C(=O)NCCn2cc(SCC(=O)Nc3ccc(C)cc3)c3ccccc32)cc1,103,88
O=C(CN1C(=O)C2(SCC(=O)N2c2ccc(F)c(F)c2)c2ccccc21)NCCc1ccccc1 (stereo not given),110,109
Cn1c(=O)n(C)c2cc(N3CCOCC3)c(NC(=O)c3ccc(Cl)cc3)cc21,100,102
COc1ccc(C(=O)Oc2c(Sc3ccc(C)cc3)c(C)nn2C(C)(C)C)cc1OC,101,98
CC(C)Oc1ccc(CNC(=O)C2CCN(C(=O)N3CC(C)Oc4ccccc43)CC2)cc1 (stereo not given),104,103
CCC(CC)C(=O)OCc1cc(=O)n2nc(C3CCCCC3)sc2n1,106,109
COc1cc(C(=O)NCc2ccc3c(c2)CCN3C(=O)c2ccc(Cl)cc2)cc(OC)c1OC,104,109

# Arranged by number of heavy atoms (low to high): some entries from above
SMILES,PV pol inh,PV pol inh intensity
Cc1ccccc1C(=O)Nc1nnc2n1CCS2,106,112
Cc1ccc2[nH]c3c(=O)n(CC(=O)NC(C)C)ncc3c2c1,103,102
CC(=O)n1nc(-c2cccnc2)nc1NCc1ccc(F)cc1,100,99
CCc1cccc(NC(=O)CC2Oc3ccc(C)cc3NC2=O)c1 (stereo not given),100,102
CCN(CC)CCNC(=O)c1cc2c(=O)[nH]c3ccc(C)cc3c2s1,99,98
CCCCC(=O)Nc1nnc(SCc2cc(=O)n3cc(C)ccc3n2)s1,110,112
CCN(CC)C(=O)Cn1c(=O)cc(C)c2c(C)nn(-c3ccc(C)cc3)c21,103,104
COCCCNC(=O)C1CCCN(S(=O)(=O)c2ccc3c(c2)oc(=O)n3C)C1 (stereo not given),111,113
O=C(NCc1cccc(Br)c1)C1CCN(C(=O)c2sccc2-n2cccc2)CC1,114,112
CCOC(=O)c1cc(-c2ccccc2)n(CC(=O)Nc2ccccc2OCC)c1C,106,105
O=C(NCC(c1ccccc1)c1ccccc1)c1nn(-c2ccccc2Cl)nc1CO,104,101
Cc1cccc(N2C(=O)N(Cc3cc(=O)n4ccccc4n3)c3ccccc3S2(=O)=O)c1,109,109
CC(C)Oc1ccc(CNC(=O)C2CCN(C(=O)N3CC(C)Oc4ccccc43)CC2)cc1 (stereo not given),104,103
COc1ccc(C(=O)NCCn2cc(SCC(=O)Nc3ccc(C)cc3)c3ccccc32)cc1,103,88
CCOC(=O)C1=C(CN2CCN(c3cccc(OC)c3)CC2)NC(=O)NC1c1ccc(OC)cc1 (stereo not given),113,113
COc1cc(C2CC(=O)Nc3c2c(C)nn3-c2nncc(-c3ccc(C)cc3)n2)cc(OC)c1OC (stereo not given),115,117
CCOc1ccc(-n2c(=O)c3c4c(sc3n(CC(=O)Nc3cccc(C(F)(F)F)c3)c2=O)CCCCC4)cc1,106,109
CC(C)c1ccc(NC(=O)CSC2=Nc3ccccc3C3=NC(CC(=O)NCc4ccc(F)cc4)C(=O)N23)cc1 (stereo not given),105,105

# (list continues)
SMILES,PV pol inh,PV pol inh intensity
COc1ccc(OC)c(C2NC(=O)NC(C)=C2C(=O)Nc2ccc(F)cc2)c1 (stereo not given),100,103
COc1cc(CN2CCN(S(=O)(=O)c3ccc(NC(C)=O)cc3)CC2)cc(OC)c1OC,105,105
Cc1ccc2nc(-c3ccc(NC(=O)COc4ccccc4C(C)(C)C)cc3)sc2c1,107,108
CCCN(CCC)C(=O)Cn1c(=O)n(CCCCCC(=O)Nc2ccccc2)c(=O)c2sccc21,110,110
CC(=O)c1cccc(NC(=O)CCS(=O)(=O)c2ccc3c(c2)n(C)c(=O)c(=O)n3C)c1,107,106
CCCCOc1ccc(C2=NC(c3cccs3)=Nc3ccc(CC)cc3N2)cc1,108,108
COc1ccc(S(=O)(=O)c2c(SC)nn(Cc3ccccc3C)c2NC(C)=O)cc1,111,115
O=C(Nc1ccccc1Br)C1CCCN(S(=O)(=O)c2cccc3nsnc23)C1 (stereo not given),108,107
COc1ccccc1N1CCN(c2ccc(=O)n(CC(=O)Nc3cc(F)ccc3C)n2)CC1,110,113
